ALR inh: human ALR oxidase inhibition via reduced H2O2 | P55789 | purified ALR, DTT oxidation, H2O2 HRP-luminol luminescence | inhibition, % (no concentration beside the values) | actives 3.8% (n = 290,000) | AID 485317;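 active means mean and each replicate at 75% or more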;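 further: stock transfer was 7.5 nL into about 7.5 µL; 0% = neutral wells and 100% = wells with inactivated enzyme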
Target sequence (P55789 whole entry, looked up): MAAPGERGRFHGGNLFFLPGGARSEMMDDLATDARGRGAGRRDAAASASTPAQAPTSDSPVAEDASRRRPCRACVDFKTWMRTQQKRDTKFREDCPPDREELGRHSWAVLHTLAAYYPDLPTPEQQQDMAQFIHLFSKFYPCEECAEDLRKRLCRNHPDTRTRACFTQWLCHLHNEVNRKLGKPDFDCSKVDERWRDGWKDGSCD
B2AR ag: human beta-2 adrenergic receptor agonism by FAP. P07550. Am2.2-beta2AR cells, FAP receptor internalization, flow cytometry; reference of the scale not given here. response, % (no concentration beside the values). actives 0.43% (n = 340,000). AID 504454;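 active means response above a set limit, near 3 SD of response in nonfluorescent compounds, cut at about 42% in these data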;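 further: stock transfer was 100 nL into about 11 µL; a reference agonist was the positive control; negative values mostly stem from fluorescent compounds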
Target sequence (P07550 whole entry, looked up): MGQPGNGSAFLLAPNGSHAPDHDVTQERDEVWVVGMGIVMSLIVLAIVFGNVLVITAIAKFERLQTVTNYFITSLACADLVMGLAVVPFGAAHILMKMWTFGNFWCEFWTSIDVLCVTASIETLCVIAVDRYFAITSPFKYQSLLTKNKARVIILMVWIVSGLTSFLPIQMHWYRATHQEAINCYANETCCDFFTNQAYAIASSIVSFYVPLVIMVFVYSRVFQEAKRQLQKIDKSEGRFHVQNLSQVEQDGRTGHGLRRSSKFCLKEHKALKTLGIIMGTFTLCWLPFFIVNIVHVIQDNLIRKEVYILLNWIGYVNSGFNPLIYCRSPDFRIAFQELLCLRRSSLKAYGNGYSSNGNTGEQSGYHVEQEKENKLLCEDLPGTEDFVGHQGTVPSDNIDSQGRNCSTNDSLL
rRNA inh HTS: selective bacterial rRNA inhibition in E. coli | E. coli WT GFP vs humanized-ribosome RFP mutants, fluorescence, 24 h; hits give low values; DMSO median 0, no signal -100 | GFP signal change (wild-type ribosome), % (no concentration beside the values) | actives 1.6% (n = 350,000) | AID 720706;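 active means significant combined selectivity score with lowered wild-type GFP, culture density cut under 30%, mutant RFP and density less affected; inactive means any of these conditions unmet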; further: one replicate is shown; some compounds called inactive have numbers as strong as hits
UCH37 inh: inhibitors of human deubiquitinating enzyme UCH37; purified proteasome/UCH37, Ub-AMC cleavage fluorescence; inhibition, % (concentration not given with the values); actives 0.33% (n = 330,000); AID 588478; Q9Y5K5;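 active means mean of two replicates above 20%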;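 further: 0% = compound-free wells with enzyme and 100% = wells lacking proteasome; stock transfer was 100 nL into about 20 µL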
Target sequence (Q9Y5K5 whole entry, looked up): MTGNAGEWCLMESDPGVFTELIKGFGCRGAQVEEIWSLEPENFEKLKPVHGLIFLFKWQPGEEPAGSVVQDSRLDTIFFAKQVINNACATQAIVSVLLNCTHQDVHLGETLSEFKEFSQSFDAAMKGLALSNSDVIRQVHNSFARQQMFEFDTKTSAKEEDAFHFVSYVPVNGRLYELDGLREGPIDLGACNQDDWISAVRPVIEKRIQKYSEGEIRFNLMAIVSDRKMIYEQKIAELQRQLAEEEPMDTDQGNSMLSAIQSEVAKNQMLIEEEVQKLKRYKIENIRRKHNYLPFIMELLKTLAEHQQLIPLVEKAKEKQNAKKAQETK
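Material: Human UCH37 enzyme supplied as purified proteasome complex | Schedule: 30 min preincubation with enzyme, 25 min cleavage at room temperature | Detection: AMC fluorescence 355/460 nm | Measure: % inhibition of Ub-AMC cleavage fluorescence | Controls: Wells without proteasome as full block, compound-free enzyme plus substrate as uninhibited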
HNF4A DNA FP: change in binding of human HNF4 alpha to DNA; actives 0.3% (n = 360,000); HNF4a-FITC DNA binding, fluorescence polarization, 1 h; activity change, % at 10 µM; AID 1224865; P41235; in the data active means activity change above about 30%, passing the limit was not always enough;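 further: controls were the assay level and a saturating level of protein; the project sought stronger binding though the title names inhibitors; some compounds called inactive have numbers as strong as hits; positive values seem to mean higher polarization but the record does not say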
FGF22 binding: shifts melting point of recombinant human FGF22; Q9HCT0; recombinant FGF22 thermal shift, SYPRO orange fluorescence; percent of sucrose octasulfate shift, DMSO zero; calls only at 9.99 µM; actives 1.5% (n = 340,000); AID 651658;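 active means melting point raised past a set limit in the mean and every replicate; three in four hits are not shown here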
E coli growth: blocks Escherichia coli growth; OD600 absorbance (no concentration beside the values); actives 0.21% (n = 330,000); OD600, 23 h; hits give low values; AID 1053175;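 active means OD600 absorbance below the run mean of sample wells minus 3.6 SD, in any replicate, cut at about 0.56 in these data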;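 further: stock transfer was 300 nL into about 60 µL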
rRNA inh HTS OD600: also measured in rRNA inh HTS; calls as there; OD600 change, %; measured here: OD600 growth;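 optical density of the mix in the first replicate; 0 = DMSO median and -100 = no signal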
rRNA inh HTS RFP: second read-out of rRNA inh HTS, no call of its own (marks repeat the call); RFP signal change, %; measured here: RFP humanized mutant strains;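 first replicate; 0 = DMSO median and -100 = no signal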
Numbers without * were called inactive; i = inactive; nt = no result given; & = joins results of further samples. Not all compounds are listed (hit frequency here may not be typical).

SMILES | ALR inh | B2AR ag | rRNA inh HTS | rRNA inh HTS OD600 | rRNA inh HTS RFP | UCH37 inh | HNF4A DNA FP | FGF22 binding | E coli growth
OCCN(Cc1ccccc1)Cc1ccc(Cl)cc1Cl | -4 | 3 | nt | nt | nt | 3.1 | 3.2 | nt | 0.67
Oc1ccc(Nc2nc(-c3cccs3)cs2)cc1 | -26 | 2 | nt | nt | nt | -162 | 1.7 | nt | 0.69
NC(=O)c1nn(-c2ccccc2)nc1NC(=O)Cn1nnc(-c2ccccc2)n1 | -6 | 6 | nt | nt | nt | -3.7 | -3.8 | nt | 0.76
CC(C)CNS(=O)(=O)c1ccc(S(=O)(=O)NC2CCOC(C)(C)C2)cc1 (stereo unspecified) | nt | -4 | 5 | 5 | -0.4 | 4.5 | -0.6 | i | 0.66
COc1ccc2c(c1)CCCC21NC(=O)N(CC(=O)NC(=O)NCc2ccccc2)C1=O (stereo unspecified) | 13 | 4 | -27 | -24 | 1.4 | 1.7 | 3.9 | i | 0.67
O=C1NC[C@@H](CCCCN2C[C@H](Cc3ccc(O)cc3)N(CCC3CCCCC3)C(=O)C2=O)N(CC2CCCCC2)C1=O | nt | nt | -37 | -72 | -0.5 | nt | 0.1 | i | nt
O=C(c1ccc(-c2cccc(Cl)c2Cl)o1)N1CCOCC1 | nt | -5 | -27 | -38 | -4.0 | 0.6 | 2.9 | i | 0.68
Cc1cc(CN2CCN(CCC#N)CC2)c(O)c(C2(C)CCCCC2)c1 | -1 | 3 | nt | nt | nt | 2.6 | 2.1 | nt | 0.67
CCOc1cc(/C=C(\C#N)C(=O)NCC2CCCO2)ccc1OCC(N)=O (stereo unspecified) | 23 | -12 | 9 | 19 | -1.4 | 0.7 | -0.4 | i | 0.65
CC1CCN(C(=O)CSc2nc3cccnc3n2C)CC1 | 6 | -1 | nt | nt | nt | 0.1 | -1.5 | nt | 0.71
CC(=O)/C=C1/SC(CC(=O)O)C(=O)N1c1ccccc1 (stereo unspecified) | 6 | 1 | nt | nt | nt | 8.1 | -0.4 | nt | 0.74
COCCN(CCOC)S(=O)(=O)c1ccc(C(=O)Nc2ccc([N+](=O)[O-])cc2OC)cc1 | -2 | -4 | 0 | 2 | 0.4 | 4.6 | -2.7 | i | 0.7
Cc1nn(-c2ccccc2)c(C)c1NC(=O)COC(=O)CCCOc1ccccc1 | -16 | -3 | 5 | 8 | 1.2 | -0.6 | 0.0 | i | 0.69
CCOC(=O)C(C)Oc1cccc2c(=O)n(CC(=O)N3CCN(C(=O)OCC)CC3)ccc12 (stereo unspecified) | -3 | 4 | 5 | 5 | -2.2 | 5.8 | 1.7 | i | 0.71
CC(=O)Nc1ccc(NC(=O)c2ccc3c(c2)CCN3S(C)(=O)=O)cc1 | -5 | 8 | 4 | 11 | -3.6 | 1.1 | -2.9 | i | 0.65
O=C(CCCCn1c(=O)[nH]c2ccsc2c1=O)NCc1cccnc1 | 2 | -5 | nt | nt | nt | 0.7 | 1.2 | nt | 0.67
Cc1nonc1CN(C)C(=O)CC1C(=O)NCCN1Cc1ccc(F)c(F)c1 (stereo unspecified) | -25 | 0 | 13 | 15 | 1.4 | -1.5 | -3.0 | i | 0.64
C=CCSc1nnc2c(n1)OC=Nc1ccc(Br)cc1-2 | 19 | 13 | nt | nt | nt | 3.8 | -2.5 | nt | 0.65
CCOc1ccc(C(=O)CN2CCN(S(=O)(=O)c3ccc(OC)cc3)CC2)cc1 | -2 | 1 | nt | nt | nt | 6.2 | 0.6 | nt | 0.7
CSc1ncccc1C(=O)Nc1ccc2c(c1)OCCO2 | 0 | -3 | 5 | 5 | -2.1 | -0.2 | 1.0 | i | 0.67

One compound at a time (already shown):
Results for CCOC(=O)C(C)Oc1cccc2c(=O)n(CC(=O)N3CCN(C(=O)OCC)CC3)ccc12 (stereo unspecified) : ALR inh = -3; B2AR ag = 4; rRNA inh HTS = 5; rRNA inh HTS OD600 = 5; rRNA inh HTS RFP = -2.2; UCH37 inh = 5.8; HNF4A DNA FP = 1.7; FGF22 binding = i; E coli growth = 0.71
Results for Cc1cc(CN2CCN(CCC#N)CC2)c(O)c(C2(C)CCCCC2)c1 : ALR inh = -1; B2AR ag = 3; rRNA inh HTS = nt; rRNA inh HTS OD600 = nt; rRNA inh HTS RFP = nt; UCH37 inh = 2.6; HNF4A DNA FP = 2.1; FGF22 binding = nt; E coli growth = 0.67

Later entries.
SMILES | ALR inh | B2AR ag | rRNA inh HTS | rRNA inh HTS OD600 | rRNA inh HTS RFP | UCH37 inh | HNF4A DNA FP | FGF22 binding | E coli growth
CCN=C(NCC)SC1CC(=O)N(CCc2ccccc2)C1=O (stereo unspecified) | -2 | 0 | 9 | -1 | 0.9 | 1.8 | 1.0 | i | 0.66
CCc1cc2c(=O)n(C(C)C(=O)OC3CCCCC3)cnc2s1 (stereo unspecified) | nt | -3 | nt | nt | nt | 0.6 | 2.0 | nt | 0.7
Cc1c(NC(=O)CN2CCCc3ccccc32)c(=O)n(-c2ccccc2)n1C | 58 | -1 | nt | nt | nt | 5.2 | 2.3 | nt | 0.63
CCc1nc(N)nc(N)c1-c1ccc(Cl)c(N=[N+]=[N-])c1 | nt | 4&-1 | -9&-11 | -32&-28 | -10&-12 | nt | 0.9&0.5 | i | nt
CCc1nnc(NC(=O)CCC(=O)NC2CCCc3ccccc32)s1 (stereo unspecified) | nt | 6 | 13 | -7 | 9.0 | 0.7 | 0.9 | i | 0.66
Cc1cccc(N(C)S(=O)(=O)c2ccc3[nH]c(=O)c(=O)[nH]c3c2)c1 | nt | 5 | nt | nt | nt | 0.0 | 8.5 | nt | 0.7
CCOC(=O)c1cc([N+](=O)[O-])sc1NC(=O)CC | -8 | -1 | -24 | -25 | 4.2 | 8.1 | 0.1 | nt | 0.7
Cc1c(CCO)c(=O)n(-c2ccccc2)n1S(=O)(=O)c1ccc(Cl)cc1 | 1 | 3 | nt | nt | nt | 0.2 | -2.0 | nt | 0.7
COc1ccc(C(=O)NCCCCNC(=O)c2ccc(OC)c(OC)c2)cc1OC | -2 | 0 | 0 | 0 | -1.6 | 3.9 | -0.8 | i | 0.67
COc1ccccc1NS(=O)(=O)c1cccc(C(=O)NCc2ccncc2)c1 | nt | 6 | 12 | 9 | -2.6 | -0.3 | 31 | nt | 0.68
COc1cccc(-n2c(=O)c3c(C)c(C(=O)N(C)C)sc3n(CC(=O)NCCc3ccc(OC)c(OC)c3)c2=O)c1 | -25 | -13 | 4 | -8 | 0.2 | 4.0 | 0.1 | i | 0.71
CCOCCOc1nc(C)cc(C)c1S(=O)(=O)c1ccccc1C | -29 | -4 | nt | nt | nt | 1.6 | 1.0 | nt | 0.65
Cc1cccc(OCC(=O)NNC(=O)c2ccc([N+](=O)[O-])cc2)c1 | nt | -4 | 14 | 1 | -3.5 | -0.1 | 0.7 | i | 0.65
CCOC(=O)c1sc(C)c2c(=O)n(CCCN3CCOCC3)cnc12 | 6 | -4 | nt | nt | nt | 0.4 | -0.6 | nt | 0.72
COc1ccc(S(=O)(=O)N2CCCCC2)cc1NC(=O)Cn1cnc2c1c(=O)n(C)c(=O)n2C | -3 | 8 | -1 | 3 | -0.8 | -0.9 | 3.1 | i | 0.63
OCCN(/C=N/c1nc(-c2ccc(Br)cc2)cs1)CCO | 2 | -9 | -17 | -12 | 11 | nt | 0.5 | i | nt
COc1ccc2nc(SCC(=O)N3CCN(c4ccc(F)cc4)CC3)c(C#N)cc2c1 | -5 | -1 | nt | nt | nt | -3.1 | 6.3 | nt | 0.77
COc1cc(OC)cc(C(=O)NCCSc2c[nH]c3ccccc23)c1 | 91* | 1 | -13 | -16 | 5.4 | 3.4 | 1.0 | i | 0.66
Cc1cnc(C(=O)OCC(=O)N2CCN(C(=O)c3ccco3)CC2)cn1 | 1 | -1 | 10 | 8 | 5.7 | -1.4 | -0.8 | i | 0.67
Cc1ccc(S(=O)(=O)Nc2c(C)nn(C)c2C)c(C)c1 | -3 | -7 | 8 | 16 | -0.3 | 3.2 | 1.6 | i | 0.71
COc1cc(C2C(C#N)=C(N)OC3=C2C(=O)CC(C)(C)C3)cc2c1OCO2 (stereo unspecified) | -5 | -1 | -3 | -6 | 2.3 | -0.3 | -2.3 | i | 0.65
COc1ccc(OCC(O)CN2CCNCC2)cc1 (stereo unspecified) | -45 | 4 | 24 | 8 | 2.8 | -0.3 | -1.2 | i | 0.65
COC(=O)c1ccc(NC(=O)c2cccc(N3C(=O)C4C5C=CC(C6CC56)C4C3=O)c2)cc1 (stereo unspecified) | nt | 28 | -1 | -1 | -0.7 | -2.2 | 2.1 | i | 0.72
Cc1ccc(NC(=O)COC(=O)c2ccc3c(c2)C(=O)N(CCc2ccccc2)C3=O)c(C)c1 | 2 | 3 | nt | nt | nt | 2.7 | -0.3 | nt | 0.72
O=C(NCCc1ccccc1)C(=O)NCC1OCCN1S(=O)(=O)c1ccc([N+](=O)[O-])cc1 (stereo unspecified) | -40 | -5 | 0 | 3 | -2.6 | 2.6 | -2.2 | i | 0.69
NS(=O)(=O)c1ccc(NC(=O)c2ccc3c(c2)CCCC3)cc1 | nt | 8 | 6 | 6 | -1.0 | 0.8 | -2.5 | i | 0.69
C[C@]12C=CC(=O)C=C1CC[C@@H]1[C@@H]2C(=O)C[C@@]2(C)[C@H]1CC[C@]2(O)C(=O)COC(=O)CCC(=O)O | -21 | 1 | -11 | -3 | -5.5 | 2.2 | 1.4 | i | 0.68
CS(=O)(=O)N(CC(=O)Nc1ccccc1-c1ccccc1)c1cccc(F)c1 | -5 | 3 | -29 | -38 | 1.0 | 1.7 | -0.1 | i | 0.69
CC(NC(=O)c1ccc(Cl)cc1)C1CC2CCC1C2 (stereo unspecified) | -2 | -5 | 17 | 12 | -3.1 | 2.6 | -0.4 | i | 0.7
CCC(C(=O)OCC(=O)Nc1ccc(C(N)=O)cc1)c1ccccc1 (stereo unspecified) | -1 | -4 | 8 | 9 | 1.1 | 1.9 | 0.9 | i | 0.67
O=S(=O)(c1ccc(Cl)cc1)N1CCN(C2CCCCCC2)CC1 | 2 | 6 | nt | nt | nt | 5.2 | -2.3 | nt | 0.76
Cc1ccc(C(=O)NCCc2sc(C)nc2C)cc1 | -3 | 2 | nt | nt | nt | 3.7 | -2.3 | nt | nt
CC1(C(=O)NCc2ccc3c(c2)OCO3)CCN1C(=O)C1(c2ccc(Cl)cc2)CC1 (stereo unspecified) | nt | nt | -6 | -24 | -6.7 | nt | 0.4 | i | nt
O=C(CCc1nc2ccccc2[nH]1)NC1CCCCC1 | nt | -10 | 13 | 17 | 0.2 | 4.2 | 0.5 | i | 0.72
O=C(/C=C/c1ccc[nH]1)c1ccccc1 | 97* | 0 | 18 | 15 | 8.5 | 4.5 | 6.8 | i | 0.63
COCCN(C(=O)COC(=O)c1oc2ccc(OC)cc2c1C)c1c(N)n(Cc2ccccc2)c(=O)[nH]c1=O | -2 | nt | 4 | 0 | 7.7 | -69 | 6.7 | i | 0.69

From PubChem BioAssay
